miR-21 reporter = qHTS Assay for Modulators of miRNAs and/orActivators of miR-21; HeLa miR-21 FLuc reporter, luciferase, 48 h; Potency, µM (highest dose often 38.3 µM), inactives show at the highest dose reporter change, positive = more light; 340,000 tested, under 10 active; active = well fitted rising curve with a large enough effect; inconclusive = small, poorly fitted or top-dose-only effect; inactive = no such curve, though single readings can be large or run the other way;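 also: % of control where 0% means no effect; miR-21 action dims this reporter so a rising signal means less miR-21 action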
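HeLa cells endogenously expressing miR-21, stably carrying CMV-driven firefly luciferase with a downstream miR-21 binding site, 2000 cells/well. Titrations up to approximately 40 uM, 48 hours; luciferase luminescence read.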
GLA inh pH 4.5 = qHTS Assay for Inhibitors of Human alpha-Galactosidase at pH 4.5; Alpha-galactosidase A (Homo sapiens), P06280; purified enzyme, 4-MU-alpha-Gal fluorescence, pH 4.5; activity change, negative = inhibition, % at 105 µM; 230,000 tested, under 10 active; inconclusive = small, poorly fitted or top-dose-only inhibition, or a rising curve; inactive = flat fitted curve, though single readings scatter; no compound was filed as active;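 also: 0% = full activity with enzyme and -100% = basal without enzyme; dose as in the result columns while the protocol names 77 µM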
Rango release inh = qHTS Assay for Inhibitors of RanGTP induced Rango (Ran-regulated importin-beta cargo) - Importin beta complex dissociation | Potency, µM (top dose mostly 46.1 µM), inactives show at the top dose activity change, negative = inhibition | 340,000 tested, 0.071% active | AID 540253, 2011 | Snurportin-1 (Homo sapiens) + GTP-binding nuclear protein Ran (Homo sapiens) + Importin … | Biochemical FRET Rango-importin beta, RanGTP-induced dissociation; active means falling FRET ratio curve, often poorly fitted, with flat reads before Ran was added; inconclusive means other falling curves, or compound fluorescence or quenching; inactive means flat or rising ratio curve;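 also: potency is read from the fitted curve at half-maximal effect; % of control where 0% means no effect; nearly all actives have a fitted effect of over 45% in size; -100% = wells without RanGTP and RCC1; the record marks most hits as doubtful in a second field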
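FRET read at 45 min, room temperature: inhibitors block the CFP/YFP signal rise when RanGTP (0.6 uM Ran, 2 mM GTP, 0.2 uM RCC1) frees Rango (0.1 uM) from importin beta (0.25 uM). Pre-read after 5 min compound exposure flags interference.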
Rango complex inh = qHTS Assay for Inhibitors of Rango (Ran-regulated importin-beta cargo) - Importin beta complex formation. Importin subunit beta-1 (Homo sapiens), Q14974. Rango CFP/YFP FRET sensor + importin beta, 45 min. Potency, µM (doses to about 92.2 µM), for inactives: top-dose inhibition of complex formation. 340,000 tested, 0.031% active. AID 540263, 2011; active = rising FRET ratio curve, often small or poorly fitted; inconclusive = mostly compound fluorescence or quenching in the first reads; inactive = flat curves in all reads;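 also: potency is read from the fitted curve at half-maximal effect; 0% = DMSO wells and 100% = buffer wells lacking importin beta; nearly all actives have a fitted effect of over 15% in size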
Target sequence (Q14974 whole entry, looked up): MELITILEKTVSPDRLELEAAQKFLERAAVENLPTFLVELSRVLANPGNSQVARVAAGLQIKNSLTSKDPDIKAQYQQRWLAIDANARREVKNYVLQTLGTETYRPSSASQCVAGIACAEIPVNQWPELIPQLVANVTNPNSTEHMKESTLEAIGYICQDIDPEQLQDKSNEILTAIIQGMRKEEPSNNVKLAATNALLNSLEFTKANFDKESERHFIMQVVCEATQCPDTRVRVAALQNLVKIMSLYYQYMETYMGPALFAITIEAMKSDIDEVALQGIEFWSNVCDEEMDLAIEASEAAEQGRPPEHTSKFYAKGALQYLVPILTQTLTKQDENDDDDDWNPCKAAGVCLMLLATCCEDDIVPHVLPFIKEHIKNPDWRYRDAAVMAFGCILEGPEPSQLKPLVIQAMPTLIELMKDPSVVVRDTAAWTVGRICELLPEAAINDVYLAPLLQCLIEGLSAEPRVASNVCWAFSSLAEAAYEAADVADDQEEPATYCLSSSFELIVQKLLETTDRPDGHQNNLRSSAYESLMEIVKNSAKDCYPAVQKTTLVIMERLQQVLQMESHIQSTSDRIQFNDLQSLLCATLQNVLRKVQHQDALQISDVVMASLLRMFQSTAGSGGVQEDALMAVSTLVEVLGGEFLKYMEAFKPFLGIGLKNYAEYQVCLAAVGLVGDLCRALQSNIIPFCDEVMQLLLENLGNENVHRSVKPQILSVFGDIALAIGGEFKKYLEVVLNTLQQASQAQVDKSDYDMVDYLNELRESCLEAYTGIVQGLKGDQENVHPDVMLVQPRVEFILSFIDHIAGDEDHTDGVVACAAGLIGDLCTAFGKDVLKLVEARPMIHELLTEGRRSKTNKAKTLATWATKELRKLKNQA
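FRET biosensor Rango (snurportin 1 IBB between N-terminal EYFP and C-terminal Cerulean), 50 nM in PBS/1 mM DTT/0.02% Tween-20/0.1% BSA, preincubated 5 min RT with compound; 0.125 microM importin beta added, 45 min RT, CFP/YFP FRET ratio read.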
* hit, by the source's call; ? = inconclusive; . = not tested or not shown; [ ] = another dose, or the depositor's remark. A portion of the library; count on the stated rates, not on these rows.

Results follow in this order: miR-21 reporter	GLA inh pH 4.5	Rango release inh	Rango complex inh
> O=C(NN1C(=O)C2C3C=CC(O3)C2C1=O)c1ccccc1 (stereo not given)
 : 1%	0[21.1 µM]	17%	0.6%
> CC(=O)N1c2ccc(S(=O)(=O)NCCC(=O)NCc3ccc(N(C)C)cc3)cc2CC1C (stereo not given)
 : 2%	.	0%	-0.2%
> Cc1cc(C)c2ccc(=S)[nH]c2n1
 : -5%	-3	1%	-0.5%
> COc1cc(/C=C(/NC(=O)c2ccccc2)C(=O)Nc2cccc(O)c2)c([N+](=O)[O-])cc1OC
 : -6%	1	8%	-3.5%
> COc1ccc(N(CC(=O)NCc2ccncc2)S(=O)(=O)c2ccccc2[N+](=O)[O-])c(OC)c1
 : 0%	3	17%	-1.0%
> O=C(O)CNC(=O)CC1S/C(=N/N=C2\CSC(=O)N2)NC1=O (stereo not given)
 : 3%	6	-4%	2.9%
> COc1ccc(C(CNC(=O)c2oc3c(Cl)cccc3c2C)N2CCCC2)cc1 (stereo not given)
 : .	.	3%	0.1%
> COc1ccc(/C=C2/SC(=S)N(CCCC(=O)Nc3ccc(O)cc3)C2=O)cc1
 : ?	-7	0%	1.8%
> O=C(COC(=O)c1cc(Cl)nc(Cl)c1)NC1CCCCCC1
 : .	.	-2%	0.9%
> O=C(CSc1nnc(CNC(=O)c2ccc(F)cc2)o1)NCc1ccc2c(c1)OCO2
 : 1%	.	12%	0.7%
> CC(=O)c1c(N2CCOCC2)nc(=O)n(-c2ccccc2)c1C
 : 6%	4	4%	3.4%
> O=C(NCC1CCCO1)C1CCN(C2CCN(C3CCCCCC3)CC2)CC1 (stereo not given)
 : -3%	5	7%	-0.7%
> C/C(CCN1CCc2nc(-c3ccccc3)c(-c3ccccc3)cc2C1)=N\O[C@@H](C)c1cc(-c2c(C)cc(C)cc2C)no1
 : -3%	11	3%	1.0%
> CC12CCC(=O)N1C(C(=O)Nc1nc(-c3ccccc3Cl)cs1)CS2 (stereo not given)
 : .	.	5%	0.9%
> Cc1nc(C2CCC3C4CCC5=CC(=O)CC[C@]5(C)C4CC[C@]23C)cs1 (stereo not given in full)
 : 5%	6	.	.
> CCCn1c(SCC(=O)c2[nH]c(C)c(C(C)=O)c2C)n[nH]c1=O
 : 7%	-3	6%	0.7%
> COc1ccccc1NC(=O)C(Sc1ccccc1)c1ccccc1 (stereo not given)
 : -7%	-4	-3%	?
> Cc1cc([N+](=O)[O-])ccc1Nc1nc2ccccc2n2cnnc12
 : -11%	.	5%	0.0%
> O=S(=O)(c1ccccc1)c1ccc(C(F)(F)F)cn1
 : -3%	0	-13%	-2.9%
> CN1C(=S)N(c2cccnc2)C(=O)/C1=C\c1ccc(C(C)(C)C)cc1
 : -2%	-5	-18%	-0.9%
> Cc1ccc(Nc2ccccc2)cc1
 : 0%	26	-1%	-0.2%
> CCC(Sc1nc2ccccc2c(=O)n1CCN1CCOCC1)C(=O)NCc1cccnc1 (stereo not given)
 : -6%	-3	-4%	-1.3%
> CC/C(=N\NC(=S)NC(C)C)c1ccc(OC(F)F)cc1
 : -4%	-7	-8%	1.9%
> CC1CCN(C(=O)c2[nH]cnc2C(=O)N[C@@H](C)C(=O)OC(C)(C)C)CC1
 : -2%	1	-2%	3.8%
> COc1ccc(/C=N/NC(=O)c2ccncc2)cc1CN1CCN(c2ccc(F)cc2)CC1
 : -4%	3[21.1 µM]	19%	0.0%
> Cc1cc2c(nn1)CCc1nonc1-2
 : 3%	-1	-2%	5.0%
> Nc1c(C(=O)OCC2CCCO2)c2nc3ccccc3nc2n1C1CCCC1 (stereo not given)
 : -1%	?	-14%	-6.4%
> COc1ccccc1NC(=O)N(CCN1CCCC1)Cc1cc2cc(C)ccc2[nH]c1=O
 : .	.	14%	-0.4%
> Cc1ccc(C)c(NC(=O)C(C)N2C(=O)c3ccccc3C2=O)c1 (stereo not given)
 : 0%	.	7%	0.0%
> O=C(CSc1nnc(-c2ccco2)o1)NC(=O)C1COc2ccccc2O1 (stereo not given)
 : 1%	4	-4%	1.5%
> COc1cccc(OCCSc2nc3ccccc3c(=O)[nH]2)c1
 : -5%	-7	0%	2.8%
> COc1ccc(OC)c(C(C)NC(=O)C(C)n2cc([N+](=O)[O-])cn2)c1 (stereo not given)
 : .	.	-13%	-2.6%
> O=C(COC(=O)/C=C/c1ccccc1Cl)NC(=O)NC1CCCC1
 : .	.	3%	0.8%
> CCOC(=O)C1(CCCc2ccccc2)CCN(CC(O)CO)CC1 (stereo not given)
 : -2%	-6	11%	-1.0%
> CCOC(=O)c1c(NC(=O)C(Sc2ccccc2)c2ccccc2)sc(C(=O)N(C)C)c1C (stereo not given)
 : -23%	?	-9%	0.5%
> CC(C)(C)NC(=O)CSc1nc(O)cc(=O)[nH]1
 : 5%	-1	-13%	3.5%
> CSc1cc(N2CCOCC2)nc(-c2ccccc2Cl)n1
 : -9%	-11	-1%	3.1%
> COc1ccccc1CNC(=O)CSc1nc(C)cs1
 : -14%	-5	-3%	-2.3%
> COc1ccc(N2CCN(CCCNC(=O)c3ccc(CS(=O)(=O)c4ccc(OC)cc4)o3)CC2)cc1
 : 21%	.	5%	-3.3%
> CCN1C(=O)C2(C(C#N)=C(N)Oc3n[nH]c(-c4ccccc4)c32)c2ccccc21 (stereo not given)
 : -4%	-13	-18%	1.3%

Molecules above containing two or more sulfur atoms:
Results follow in this order: miR-21 reporter	GLA inh pH 4.5	Rango release inh	Rango complex inh
> O=C(O)CNC(=O)CC1S/C(=N/N=C2\CSC(=O)N2)NC1=O (stereo not given)
 : 3%	6	-4%	2.9%
> COc1ccc(/C=C2/SC(=S)N(CCCC(=O)Nc3ccc(O)cc3)C2=O)cc1
 : ?	-7	0%	1.8%
> CC12CCC(=O)N1C(C(=O)Nc1nc(-c3ccccc3Cl)cs1)CS2 (stereo not given)
 : .	.	5%	0.9%
> CCOC(=O)c1c(NC(=O)C(Sc2ccccc2)c2ccccc2)sc(C(=O)N(C)C)c1C (stereo not given)
 : -23%	?	-9%	0.5%
> COc1ccccc1CNC(=O)CSc1nc(C)cs1
 : -14%	-5	-3%	-2.3%

(cont.)
Results follow in this order: miR-21 reporter	GLA inh pH 4.5	Rango release inh	Rango complex inh
> Nc1nnnn1/N=C/c1ccc(O)cc1
 : -2%	6	-12%	-2.8%
> O=C(Nc1ccc(F)cc1F)N1CCN(CCc2ccccc2)CC1
 : 0%	8	-8%	5.5%
> O=C(NCCCl)Nc1ccccc1NS(=O)(=O)c1cccs1
 : .	.	-13%	0.8%
> C=CCn1c(SCc2nc3sc4c(c3c(=O)[nH]2)CCCC4)nc2ccccc2c1=O
 : -3%	-2	-4%	-0.3%
> CC(=O)c1cc2c(O)c(O)ccc2o1
 : -20%	2	-7%	?
> O=C(CN1CCCCC1)Nc1ccccc1C(=O)NC1CC1
 : .	.	1%	0.5%
> COc1cccc(/C=N/NC(=O)CNC(=O)c2ccc(S(=O)(=O)N3CCOCC3)cc2)c1OC
 : -3%	8	-7%	3.1%
> CCCc1cc(=O)[nH]c(SCC(=O)N2CCc3ccccc32)n1
 : .	.	-3%	3.8%
> NS(=O)(=O)c1cccc(-n2cnnn2)c1
 : 1%	-3	-3%	-3.0%
> O=C(C[n+]1ccc(/C=N/O)cc1)NCc1ccccc1
 : 0%	-7	1%	-0.3%
> Cc1cc(C)n(CCc2nc(-c3ccc(F)cc3)cs2)n1
 : -42%	19	-5%	1.4%
> COCCNC(=O)c1c[nH]c2ccc(S(=O)(=O)N(C)c3ccc(C)c(C)c3)cc2c1=O
 : 3%	.	-2%	1.1%
> Cc1cc(C)c(S(=O)(=O)Nc2ccc[nH]c2=O)c(C)c1
 : -7%	-2	-17%	-2.3%
> NS(=O)(=O)c1ccc(CNC(=O)CNC(=O)c2ccc(F)cc2)cc1
 : -2%	.	-1%	0.8%
> O=C(CC1(O)C(=O)Nc2ccccc21)c1cccnc1 (stereo not given)
 : -1%	4	1%	-1.1%
> CNC(=S)NNS(=O)(=O)c1ccc(OC)cc1OC
 : -6%	6	16%	5.0%
> NC(=O)c1ccc(NC(=O)COC(=O)C(Cc2ccccc2)NC(=O)c2ccccc2)cc1 (stereo not given)
 : 0%	4	0%	0.5%
> S=C(Nc1ccc2nsnc2c1)N1CCCC1
 : -45%	1	?	?
> COC(=O)c1ccc(COc2ccc3c4c(c(=O)oc3c2)CCC4)o1
 : 2%	-4	-10%	-4.3%
> COc1ccc(N(CC(=O)NCc2ccccc2C)S(=O)(=O)c2ccc(C)cc2)cc1OC
 : -5%	.	-1%	2.5%

Taken from above.
CCCc1cc(=O)[nH]c(SCC(=O)N2CCc3ccccc32)n1 in Rango complex inh reads 3.8%
O=C(Nc1ccc(F)cc1F)N1CCN(CCc2ccccc2)CC1 in Rango complex inh reads 5.5%

Other results.
Results follow in this order: miR-21 reporter	GLA inh pH 4.5	Rango release inh	Rango complex inh
> O=C1NC2(CCCCC2)C(=O)N1c1ccccc1
 : -7%	-12	-5%	-2.4%
> COc1ccc(/C=C2\CCn3c2nc2cc(C(=O)O)ccc2c3=O)cc1OC
 : -7%	-9	-1%	2.4%
> CN(C)S(=O)(=O)c1cccc(-c2cn3ccccc3n2)c1
 : -19%	-4	6%	0.9%
> Cc1ccc(CCNC(=O)c2ccc3nc4ccccc4c(=O)n3c2)cc1
 : 1%	.	?	?
> O=C(N/N=C/c1cccc(NC(=O)c2ccc(Cl)cc2)c1)c1ccc(O)cc1
 : -22%	-1	9%	-0.2%
> CC(C)c1ccc2[nH]c(O)c(N=NC(=O)c3cccc(S(=O)(=O)N4CCCCC4)c3)c2c1
 : -6%	-5	23%	-4.6%
> O=C(Nc1ccccc1Cl)O/N=C(/c1ccccc1)c1ccccn1
 : 0%	5	-10%	5.0%
> Cc1cc(/C=C(\C#N)C(=O)Nc2ccccc2)c(C)n1-c1ccc2c(c1)OCO2
 : 3%	-5	-14%	?
> CN1CCN(C2=NC(=O)/C(=C/c3ccccc3OS(=O)(=O)c3ccccc3)S2)CC1
 : 1%	-1	?	2.0%
> CCCn1ncc(OC)c(Cl)c1=O
 : -6%	8	-6%	-1.1%
> CC(N)c1ccc(Cl)cc1Cl (stereo not given)
 : -1%	0	10%	-1.2%
> O=C(OCc1nnc(-c2ccccc2)o1)c1ccc(-n2cnnn2)cc1
 : .	.	5%	-4.0%
> Cc1ccc(N=Cc2cc(Cc3ccccc3Cl)cc([N+](=O)[O-])c2O)c(O)c1
 : -4%	-8	-24%	4.9%
> CN(C)C(=O)c1nc2ccc(Cl)cn2c1CN1CCCC(OCc2ccccc2)C1 (stereo not given)
 : -1%	-1	-13%	0.8%
> CCN(C(=O)CSc1nnc(Nc2cccc(C)c2C)s1)C1CCS(=O)(=O)C1 (stereo not given)
 : -3%	0	2%	-2.9%
> Nc1c2c(nc3ccc(Br)cc13)N(Cc1ccccc1)CC2
 : -5%	-3	-8%	-0.2%
> Cc1cccc(C(=O)Nc2cccc(NC(=O)c3ccccc3)c2)c1
 : -3%	.	-3%	3.3%
> COc1cccc(CNc2nnnn2C)c1OC
 : 3%	.	11%	0.9%
> Cc1ccc(NC(=O)/C(C#N)=C/c2cc(C)n(-c3ccc(N4CCOCC4)c([N+](=O)[O-])c3)c2C)c(C)c1
 : -2%	-4	3%	0.3%
> CCOC(=O)N1C=CC(C)=C[C@@H]2[C@@H](N3C(=O)c4ccccc4C3=O)C(=O)N21
 : -9%	-7	1%	-2.8%
> Cc1cccc(-n2ccnc2SCC(=O)Nc2cccc(S(=O)(=O)NC3=NCCC3)c2)c1C
 : .	.	?	0.0%
> Cc1cccc(NCc2nc(SCC(=O)Nc3ccccc3)n[nH]2)c1
 : 0%	.	11%	7.8%
> COc1ccc(N2C(=O)CC(C3CCCO3)C2=O)cc1 (stereo not given)
 : 4%	0	-15%	-1.4%

Assay outcomes deposited in PubChem BioAssay by National Center for Advancing Translational Sciences (NCATS).
